MLL AF4-AF9 inh – inhibitors of AF4 peptide binding to AF9, primary screen, biochemical, AlphaScreen, biotin-AF4 peptide, FLAG-AF9, single point. Protein AF-9 (Homo sapiens), P42568. inhibition, % at 10 µM. 350,000 tested, 0.47% active. AID 651704, 2012;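 active means every replicate reaching a set inhibition limit, whatever the replicate mean, cut at about 25% in these data; inconclusive means mean inhibition reaches that limit but some replicates miss it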;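 further: 0% = plate neutral control median and 100% = total signal loss; the record names both 10 and 1 µM as test concentration; the first replicate is given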
T cruzi inh – inhibitors of intracellular T. cruzi growth, primary screen, luminescence, NIH3T3 host cells | T. cruzi beta-gal in NIH3T3, 90 h | inhibition, % (test concentration not listed) | 300,000 tested, 1.4% active | AID 1885, 2009;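 active means mean inhibition across valid replicates above about 55%, limit read from the data; inconclusive means mean below that limit but half or more replicates reach it; inactive means mean below it, under half of replicates reach it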;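 further: signal also drops with host cell toxicity which is not excluded here; 0% = plate median of DMSO wells and 100% = zero luminescence signal; higher percent means less beta-gal luminescence so fewer parasites; stock transfer was 50 nL into about 50 µL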
LANA-H2B inh – blockers of LANA interaction with H2A/H2B – biochemical, FP readout, HTS, primary screen | cell-free LANA-H2A/H2B peptide, fluorescence polarization | 320,000 tested, 0.6% active | inhibition, % (concentration not given with the values) | Protein LANA1 (Human herpesvirus 8 type P (isolate GK18)), Q9QR71; in the data active means inhibition mostly above about 10%, no sharp cut-off; inactive means mostly below about 6.7%;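 further: stock transfer was 7.5 nL into about 10 µL; 0% = median of vehicle wells and 100% = median of positive control wells; one replicate is shown; the record names a cut of 25% in any replicate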
Target sequence (Q9QR71 whole entry, looked up): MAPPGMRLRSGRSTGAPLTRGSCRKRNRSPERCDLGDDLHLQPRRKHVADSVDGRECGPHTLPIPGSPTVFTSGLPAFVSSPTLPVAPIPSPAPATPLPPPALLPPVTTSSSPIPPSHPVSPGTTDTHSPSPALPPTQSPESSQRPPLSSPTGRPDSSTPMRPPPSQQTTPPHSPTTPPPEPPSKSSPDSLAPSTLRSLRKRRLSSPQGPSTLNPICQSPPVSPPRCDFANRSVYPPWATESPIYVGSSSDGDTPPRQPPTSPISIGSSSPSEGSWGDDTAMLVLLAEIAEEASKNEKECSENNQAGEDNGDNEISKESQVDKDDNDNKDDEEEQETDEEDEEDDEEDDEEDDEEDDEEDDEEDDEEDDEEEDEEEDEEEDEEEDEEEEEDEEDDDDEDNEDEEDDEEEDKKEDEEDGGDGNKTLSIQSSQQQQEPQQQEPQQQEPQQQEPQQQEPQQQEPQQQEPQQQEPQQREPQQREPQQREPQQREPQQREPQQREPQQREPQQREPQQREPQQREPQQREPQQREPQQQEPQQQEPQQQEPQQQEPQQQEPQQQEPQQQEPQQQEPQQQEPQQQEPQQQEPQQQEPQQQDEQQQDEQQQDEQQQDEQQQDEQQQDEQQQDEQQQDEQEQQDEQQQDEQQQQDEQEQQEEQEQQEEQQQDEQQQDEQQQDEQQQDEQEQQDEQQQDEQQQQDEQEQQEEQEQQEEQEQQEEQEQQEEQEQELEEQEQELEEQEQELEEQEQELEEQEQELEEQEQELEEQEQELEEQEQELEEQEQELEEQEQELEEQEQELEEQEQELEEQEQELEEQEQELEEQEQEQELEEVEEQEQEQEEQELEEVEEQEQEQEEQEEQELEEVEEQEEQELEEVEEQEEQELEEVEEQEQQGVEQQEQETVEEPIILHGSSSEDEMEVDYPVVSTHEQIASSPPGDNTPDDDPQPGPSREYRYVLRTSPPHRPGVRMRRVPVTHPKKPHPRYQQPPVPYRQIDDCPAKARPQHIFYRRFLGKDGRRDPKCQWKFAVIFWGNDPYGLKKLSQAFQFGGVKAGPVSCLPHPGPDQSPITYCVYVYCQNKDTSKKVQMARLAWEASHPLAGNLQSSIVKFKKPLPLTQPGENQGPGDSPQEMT
A1 inh – caspase 3/7 activation in MEF A1-2A-BIM cells, primary screen, A1 inhibitor project, cell-based, luminescence, HTS. Caspase-Glo 3/7 luminescence, 3 h; percent of clofoctol response, vehicle zero. caspase activation, % (no concentration beside the values). 330,000 tested, 0.066% active;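 active means over half of replicate activation scores above 10%, or exactly half above 10 with the replicate mean above 10; inconclusive means replicate mean below 10 yet half the replicates above 10; inactive means over half of replicates below 10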;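 further: wells of about 30 µL received 50 nL stock; many hits fall short of the cut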
Beta apoptosis – inhibitors of cytokine-induced beta cell apoptosis, primary screen, luminescence. INS-1E cytokine-induced death, ATP luminescence, 48 h; percent of positive-control rescue, neutral wells zero. protection from apoptosis, % (test concentration not listed). 300,000 tested, 0.8% active. AID 435005, 2010;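 active means all replicates at 75% or more, or half of them and the mean; inconclusive means half reach 75% but not the mean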;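 further: 0% = cytokine-treated negative control wells and 100% = positive control rescue; higher means more ATP so stronger rescue from cytokine killing; wells of about 40 µL received 100 nL stock; the first replicate is given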
Calb FLC – C. albicans growth inhibition with fluconazole, primary screen, CaCi-2 strain, Alamar Blue fluorescence; C. albicans CaCi-2 (fluconazole-resistant clinical isolate) + fluconazole, 48 h; AID 1979, 2009; 300,000 tested, 0.57% active; growth inhibition, % (test concentration not listed);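 active means most replicates above 75%; inconclusive means exactly half above 75%; inactive means most below 75%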;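 further: all wells also contain fluconazole at 8 µg/ml as a sub-toxic cotreatment; 0% = median of DMSO wells and 100% = median of geldanamycin control wells; wells of about 8 µL received 7.5 nL stock; the first replicate is given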
RanGTP-Impb inh – inhibitors of RanGTP-importin-beta interaction, primary screen, biochemical, FRET, CFP-Ran, YFP-importin-beta, homogeneous | Ran GTPase (GTP-bound) - importin-beta complex | cell-free CFP-Ran/YFP-importin-beta FRET ratio | inhibition, % (test concentration not listed) | 300,000 tested, 1.1% active;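 active means most replicates above 15%; inconclusive means exactly half above 15%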;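 further: 0% = DMSO wells and 100% = Ran loaded with GDP instead of GTP; wells of about 40 µL received 100 nL stock; the first replicate is given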
Vif TR-FRET – inhibitors of Vif binding to APOBEC3G peptide, primary screen, biochemical, TR-FRET, GST-Vif 1-94, biotin-A3G peptide, dose response retest (AID 1117319). Virion infectivity factor (Human immunodeficiency virus type 1 group M subtype B (isolate …. inhibition, %; hits with a dose series show IC50 in µM. 260,000 tested, 0.57% active. TR-FRET GST-Vif / biotin-A3G peptide binding; higher % means a stronger effect; test concentration not given here; strong numbers were not always called active;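 active means above the screen mean plus three standard deviations and confirmed in dose response; inconclusive means results disagree or hit not tested in dose response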;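 further: Vif residues 1-94 fused to GST binding biotinylated APOBEC3G peptide 110-148; 0% = full assay without inhibitor and 100% = GST in place of GST-Vif; retest series ran down from 100 µM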
Active calls of the source: *; ? = inconclusive; nt = not tested or not shown; & = joins results of further samples.

SMILES	MLL AF4-AF9 inh	T cruzi inh	LANA-H2B inh	A1 inh	Beta apoptosis	Calb FLC	RanGTP-Impb inh	Vif TR-FRET
CC1(C)Cc2noc(N)c2C(C)(C)N1OC(=O)c1ccco1	nt	nt	4.3	0.0	-1	nt	nt	26%
CCOC(=O)c1nn(-c2ccccc2C)c2nc(-c3ccc(C)cc3)c(C#N)c(=O)n12	nt	4	2.6	-0.2	7	-4	4.1	-10%
Cc1ccc(C(=O)c2ccccc2C(=O)OCC(=O)NC(C)(C)C)cc1	-3.3	-11	nt	-0.1	-4	-12	-0.9	nt
COc1ccc(NC(=O)c2cc(-c3ccc(C)o3)nc3ccccc23)cc1	-1.0	15	3.9	-0.7	nt	-5	1.4	nt
Cn1cccc1CNC(=S)Nc1cc(F)cc(F)c1	-3.3	-11	2.7	0.9	-2	-4	2.5	nt
CCOc1ccccc1NC(=O)Cn1nnc(C(=O)NCc2cccs2)c1N	-1.8	26	0.6	0.1	nt	8	1.1	nt
Cc1cc(=O)nc2c3ccccc3n(CC(=O)NCCCN3CCOCC3)n12	nt	16	0.2	1.1	-5	1	1.2	nt
O=C(COC(=O)COc1ccccc1)Nc1ccc(Cl)cn1	2.1	nt	1.3	-0.4	4	nt	nt	-12%
O=C(NCCN1CCOCC1)c1cc(Br)ccc1Cl	-2.0	-2	-2.5	-0.4	0	19	1.5	nt
COc1ccccc1CN(Cc1cc2cc(C)ccc2[nH]c1=O)Cc1nnnn1CC1CCCO1 (stereo not drawn)	nt	4	0.6	0.0	7	4	-2.3	-4%&2%
Cc1nc(-c2ccc(S(=O)(=O)N3CCOCC3)cc2)cs1	-3.6	-2	-4.8	0.3	-3	5	8.3	-1%
O=C(Cc1cc(=O)oc2cc(O)ccc12)NCC1CCC(C(=O)O)CC1 (stereo not drawn)	nt	0	0.1	-0.5	2	-4	32*	-8%
Cc1ccc(-c2nc(C)sc2CC(=O)OCC(=O)Nc2ccc(F)c(Cl)c2)cc1	-0.4	-3	0.9	0.0	-10	0	-1.5	nt
Cc1ccccc1N1CCN(C2CCCN(C(=O)c3snnc3C)C2)CC1 (stereo not drawn)	-0.4	-4	-0.7	0.0	2	6	0.8	nt
CCC1COCCS(=O)(=O)N1Cc1cccc(C(F)(F)F)c1 (stereo not drawn)	-1.8	-8	-8.7	-0.3	3	-2	1.8	nt
O=C(c1ccc(NC(=S)NCc2ccco2)cc1)N1CCCCC1	-1.4	8	0.7	-1.2	-2	-6	0.7	0%
C[C@H](NC(=O)c1nc[nH]c1C(=O)NCC(=O)OCc1ccccc1)c1ccccc1	-5.9	13	-1.0	0.7	-6	12	5.2	nt
CCN(C(=O)CSc1nnc(Cn2nnc3ccccc32)o1)c1nc(C)cs1	nt	-3	3.3	0.6	0	-11	5.2	?
Cn1c2c(c(=O)n1-c1ccccc1)CSCC2	0.5	-2	-9.2	0.0	nt	1	0.7	nt
C[C@@H](NC(=O)OC(C)(C)C)c1nnc(S(=O)(=O)Cc2ccccc2)o1	nt	-16	0.1	-0.5	-28	8	-0.3	30%
Cc1nn(C)c(C)c1CCC(=O)NC1CC(C)(C)Cc2c1cnn2-c1ccccc1 (stereo not drawn)	-1.3	-3	3.0	-0.1	-1	2	-3.4	-4%
CC1SC(c2ccc(Cl)cc2)NC1=O (stereo not drawn)	nt	-10	0.5	0.3	-1	0	2.5	-3%
CCOC(=O)C1=C(C)NC2=C(C(=O)CC(C)(C)C2)C1c1ccc2c(c1)CCCN2C (stereo not drawn)	nt	20	0.5	-0.2	-1	35	-0.3	13%
O=C(c1csc2c1CCCC2)n1cccn1	2.0	-2	0.0	-1.1	-5	3	1.1	nt
O=C(CCc1ccccc1)NCc1ccc2c(c1)OCO2	-0.9	-9	-1.3	0.0	-7	-49	-2.8	nt
O=C(O)CSCC(=O)N1CCCN(c2nccc(C(F)(F)F)n2)CC1	-3.2	2	3.9	0.2	3	2	3.2	0%
CC1CC(C)CN(CCCNC(=O)c2csc3c2CCCC3)C1 (stereo not drawn)	nt	0	3.9	1.6	1	4	-1.9	?
COc1ccc(C(=O)Nc2cccc(-c3ccc4nncn4n3)c2)cc1	-17	-11	-0.5	-0.5	12	7	-1.4	-38%
CC1CCCN(S(=O)(=O)c2ccc(C(=O)Nc3sc4c(c3C(N)=O)CCN(C)C4)cc2)C1 (stereo not drawn)	2.8	26	-1.2	0.1	-2	6	29*	3%
CSc1ccccc1C(=O)C1CCCN(C(=O)c2cncs2)C1 (stereo not drawn)	1.5	-3	2.6	-0.6	-3	?	-2.8	nt
Cc1ccc(OCCCn2c(=O)oc3ccccc32)cc1	0.2	2	2.0	0.7	1	7	3.6	17%
Cc1ccc([N+](=O)[O-])cc1S(=O)(=O)n1ccnc1C	-0.1	-10	-2.7	1.0	-3	-6	4.9	24%
Cc1ccc(C2CC(c3cccc(C)c3)n3ncnc3N2)cc1 (stereo not drawn)	3.0	0	-3.4	-0.5	2	1	?	-1%
CCCCNCc1cc(OC)c(OCC(N)=O)cc1Br	nt	7	-4.3	1.2	-5	-13	-1.2	22%
Cn1c(=O)c2c(ncn2CC(=O)OCC(=O)Nc2cc(Cl)ccc2Cl)n(C)c1=O	nt	-1	-1.0	0.7	-5	11	?	30%
CC(Sc1nnc2ccccn12)C(=O)Nc1ccc(Cl)cn1 (stereo not drawn)	nt	1	-4.1	0.9	-4	4	-1.0	8%
CCN1CCN(CC(=O)Nc2ccc3c(c2)OCO3)C(=O)C1=O	1.4	-5	-1.0	-0.2	-2	-3	5.7	-3%
O=C1NC(=O)C(CC(=O)N(Cc2cccs2)C2(C(=O)NC3CCCC3)CCCCC2)N1 (stereo not drawn)	nt	-11	2.2	1.1	4	-7	2.0	-5%
O=C(Nc1ccc(NC(=O)c2ccc(S(=O)(=O)c3ccccc3)cc2)cc1)c1ccccc1	nt	-11	1.3	0.2	-5	?	-3.5	3%
COc1ccc(OC)c(NC(=S)NCc2cccs2)c1	1.3	-2	2.5	-1.3	-2	-15	0.3	-5%
CN(O)/C=C1\C(=O)Nc2ccccc21	nt	-11	-0.5	1.4	-22	-33	1.7	10%
CCc1ccc(NC(=O)CO/N=C(\C)c2cc3ccccc3o2)cc1	-4.8	1	-3.9	0.8	0	-30	3.7	-13%
O=S(=O)(c1ccccc1F)N1CCN(c2nc(-c3cccnc3)nc3ccccc23)CC1	-3.3	nt	2.8	-0.5	-7	nt	nt	-7%
O=C1C(Cc2ccc(Br)cc2)SC(=Nc2ccccc2)N1c1ccccc1 (stereo not drawn)	-1.0	34	1.1	-0.3	3	6	3.9	-4%
O=C(CSc1nnc(C2CC2)n1C1CC1)c1ccc(F)cc1	1.9	nt	-0.2	-0.3	2	nt	nt	-7%
Cc1c(C(=O)NNc2c(Cl)cccc2Cl)n(C)oc1=O	-0.7	7	1.4	1.8	0	-2	0.9	-4%
COc1cccc(OC)c1C(=O)Nc1ccc(NC(=O)c2ccco2)cc1	nt	-15	-6.2	-0.1	4	-14	-0.1	6%
Cc1nnc(NC(=O)c2cc3ccccc3o2)s1	0.0	-1	1.2	0.0	2	22	2.0	-7%
c1ccc2c(c1)ncc1cccn12	nt	-1	-3.8	0.4	-6	-8	-0.7	24%
COc1cc(C(=S)NCc2ccccc2)cc(Br)c1O	-3.6	-2	0.7	-0.8	-2	-3	-2.7	5%

(cont.)
SMILES	MLL AF4-AF9 inh	T cruzi inh	LANA-H2B inh	A1 inh	Beta apoptosis	Calb FLC	RanGTP-Impb inh	Vif TR-FRET
O=C(Cn1cnnn1)NCc1ccccc1	0.3	-2	-3.2	-0.7	-5	-2	3.1	nt
O=C(NC1CCN(S(=O)(=O)c2ccccc2F)CC1)c1cccnc1	-9.3	21	2.4	0.0	1	-2	-2.5	nt
Cc1ccc(OCCC(=O)Nc2ccc(F)c(Cl)c2)cc1	1.5	-11	-2.8	-0.8	-9	-6	-1.6	-3%
CCOc1ccc2nc(NC(=O)C3CCCO3)sc2c1 (stereo not drawn)	-0.4	8	-2.5	-2.7	-5	41	-0.6	1%
Cc1ccc(NC(=O)c2ccc(COc3ccccc3)o2)nc1	-0.7	6	-2.0	-0.6	nt	-6	3.1	6%
CSCCC(NC(=O)COc1ccccc1)C(=O)N1CCCC(C(F)(F)F)C1 (stereo not drawn)	-8.1	-7	4.8	-0.5	nt	9	-4.7	-7%
CCNc1ccc(S(=O)(=O)N(C)C)cc1NCC(=O)Nc1c(F)cccc1F	2.7	-19	nt	0.1	0	-16	7.3	nt
COc1cc(C2=Nc3ccc(Br)cc3C(c3ccccc3)N2CC(=O)NN)cc(OC)c1OC (stereo not drawn)	3.5	0	5.4	-0.4	-4	-7	-4.8	-11%
CN(CC(=O)Nc1ccc(N2CCOCC2)cc1)CC(=O)Nc1ccccc1[N+](=O)[O-]	1.5	-9	2.7	-0.5	1	-9	-0.9	11%
CC(Oc1cccc(Cl)c1)C(=O)Nc1cc(S(=O)(=O)N2CCOCC2)ccc1N1CCCCC1 (stereo not drawn)	7.9	47	-5.0	-0.6	110*	-1	-5.5	-7%
Cc1cc(C2=NNC(=NC3CC3)SC2)c(C)n1-c1ccccc1F	3.8	32	2.7	-5.8	37	-24	2.1	31%
O=P(c1ccccc1)(c1ccccc1)c1nc(-c2ccc(Cl)cc2)oc1N1CCOCC1	12&15	12	-6.3	0.4	-10	nt	nt	-10%
COc1ccc(Nc2nnc(SCC(=O)N3CC(=O)Nc4ccccc43)s2)cc1	-2.6	0	-1.9	-0.7	8	-21	-3.4	-7%
Cc1ccc(CNC(=O)C(CC(C)C)OC(=O)c2ccco2)cc1 (stereo not drawn)	-0.5	-8	-0.7	-0.7	-6	8	3.7	nt
CC(C)Sc1nnc(SCC(=O)N(C)C2CCS(=O)(=O)C2)s1 (stereo not drawn)	0.4	nt	3.0	-0.1	0	nt	nt	nt
O=C(CSc1nnc(-c2ccncc2)o1)Nc1ccccc1Cl	nt	-12	5.8	-0.2	5	-5	?	13%
COc1cc(-c2cc(=O)c3ccccc3o2)ccc1O	-0.1	0	-2.8	-0.5	3	16	1.7	1%
Oc1ccccc1-c1cc(-c2ccco2)[nH]n1	nt	-4	0.0	-0.6	-3	-39	-0.5	19%
Cc1cccc(C)c1NC(=O)C[N+](C)(C)CC(O)COc1cccc2ccccc12 (stereo not drawn)	10.0	7	2.0	-0.4	-2	-5	-3.6	9%
CC(C)c1ccc(NC(=O)C(c2ccccc2)N2CCOCC2)cc1 (stereo not drawn)	2.1	-12	-0.9	-1.3	nt	-5	-4.7	-1%
O=C(Nc1cccc(Cl)c1)ON=C1c2ccccc2-c2ccccc21	12	0	2.1	-0.3	-18	-9	?	1%
